Source: PubChem (several laboratories)
T cruzi inh: T. cruzi replication inhibition | 1.4% of 300,000 active | inhibition, % (no concentration beside the values) | AID 1885 | T. cruzi beta-gal in NIH3T3, luminescence, 90 h;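 active = mean inhibition across valid replicates above about 55%, limit read from the data; inconclusive = mean below that limit but half or more replicates reach it; inactive = mean below it, under half of replicates reach it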;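 note: signal also drops with host cell toxicity which is not excluded here; 0% = plate median of DMSO wells and 100% = zero luminescence signal; higher percent means less beta-gal luminescence so fewer parasites; stock transfer was 50 nL into about 50 µL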
UCH37 inh: inhibitors of human deubiquitinating enzyme UCH37; inhibition, % (test concentration not listed); purified proteasome/UCH37, Ub-AMC cleavage fluorescence; 0.33% of 330,000 active; Q9Y5K5;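 active = mean of two replicates above 20%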;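 note: 0% = compound-free wells with enzyme and 100% = wells lacking proteasome; stock transfer was 100 nL into about 20 µL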
Target sequence (Q9Y5K5 whole entry, looked up): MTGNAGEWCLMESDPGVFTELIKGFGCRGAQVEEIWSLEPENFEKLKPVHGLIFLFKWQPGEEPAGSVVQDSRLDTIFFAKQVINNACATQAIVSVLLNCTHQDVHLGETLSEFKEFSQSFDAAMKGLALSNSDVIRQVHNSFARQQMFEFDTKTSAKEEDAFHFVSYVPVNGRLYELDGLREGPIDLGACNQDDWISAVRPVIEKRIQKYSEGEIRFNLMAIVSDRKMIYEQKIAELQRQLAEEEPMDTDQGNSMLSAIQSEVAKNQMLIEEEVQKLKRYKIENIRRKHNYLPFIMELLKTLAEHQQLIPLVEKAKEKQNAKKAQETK
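assay system = human UCH37 enzyme supplied as purified proteasome complex | amount = proteasome at 0.15 nM in the dispensed enzyme solution | schedule = 30 min compound-proteasome preincubation then 25 min substrate reaction, room temperature | measured by = fluorescence, ex 355 nm, em 460 nm | benchmarks = no-proteasome wells (full inhibition) and compound-free wells (no inhibition)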
rRNA inh HTS: inhibits bacterial ribosomal RNA function over humanized ribosomes; 1.6% of 350,000 active; GFP signal change (wild-type ribosome), % (test concentration not listed); E. coli WT GFP vs humanized-ribosome RFP mutants, fluorescence, 24 h; stronger effect = lower value; DMSO median 0, no signal -100;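 active = significant combined selectivity score with lowered wild-type GFP, culture density cut under 30%, mutant RFP and density less affected; inactive = any of these conditions unmet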; note: one replicate is shown; some compounds called inactive have numbers as strong as hits
Bfl-1 A1 inh: inhibitors of the anti-apoptotic protein A1, read as caspase activation; MEF A1-2A-BIM cells, Caspase-Glo 3/7 luminescence, 3 h; percent of clofoctol response, vehicle zero; caspase activation, % (test concentration not listed); 0.066% of 330,000 active;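 active = over half of replicate activation scores above 10%, or exactly half above 10 with the replicate mean above 10; inconclusive = replicate mean below 10 yet half the replicates above 10; inactive = over half of replicates below 10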;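 note: wells of about 30 µL received 50 nL stock; many hits fall short of the cut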
Ecoli growth: inhibitors of Escherichia coli growth; OD600, 23 h; stronger effect = lower value; OD600 absorbance (concentration not given with the values); 0.21% of 330,000 active;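 active = OD600 absorbance below the run mean of sample wells minus 3.6 SD, in any replicate, cut at about 0.56 in these data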;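 note: stock transfer was 300 nL into about 60 µL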
FGF22 binding: binders of recombinant human FGF22 by thermal shift; SYPRO orange fluorescence; percent of sucrose octasulfate shift, DMSO zero; calls only at 9.99 µM; 1.5% of 340,000 active; AID 651658;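 active = melting point raised past a set limit in the mean and every replicate; inconclusive = no clear call; three in four hits are not shown here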
Target sequence (Q9HCT0 whole entry, looked up): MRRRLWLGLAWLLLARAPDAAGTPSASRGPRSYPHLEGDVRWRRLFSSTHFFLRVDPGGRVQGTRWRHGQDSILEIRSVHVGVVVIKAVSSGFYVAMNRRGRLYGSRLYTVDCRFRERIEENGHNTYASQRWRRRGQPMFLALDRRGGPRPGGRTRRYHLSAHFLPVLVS
AF4-AF9 inh: MLL-AF4/AF9 protein interaction inhibition. P42568. AlphaScreen, biotin-AF4 peptide binding to FLAG-AF9. inhibition, % at 10 µM. 0.47% of 350,000 active;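 active = every replicate reaching a set inhibition limit, whatever the replicate mean, cut at about 25% in these data; inconclusive = mean inhibition reaches that limit but some replicates miss it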;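 note: 0% = plate neutral control median and 100% = total signal loss; the record names both 10 and 1 µM as test concentration; the first replicate is given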
Target sequence (P42568 whole entry, looked up): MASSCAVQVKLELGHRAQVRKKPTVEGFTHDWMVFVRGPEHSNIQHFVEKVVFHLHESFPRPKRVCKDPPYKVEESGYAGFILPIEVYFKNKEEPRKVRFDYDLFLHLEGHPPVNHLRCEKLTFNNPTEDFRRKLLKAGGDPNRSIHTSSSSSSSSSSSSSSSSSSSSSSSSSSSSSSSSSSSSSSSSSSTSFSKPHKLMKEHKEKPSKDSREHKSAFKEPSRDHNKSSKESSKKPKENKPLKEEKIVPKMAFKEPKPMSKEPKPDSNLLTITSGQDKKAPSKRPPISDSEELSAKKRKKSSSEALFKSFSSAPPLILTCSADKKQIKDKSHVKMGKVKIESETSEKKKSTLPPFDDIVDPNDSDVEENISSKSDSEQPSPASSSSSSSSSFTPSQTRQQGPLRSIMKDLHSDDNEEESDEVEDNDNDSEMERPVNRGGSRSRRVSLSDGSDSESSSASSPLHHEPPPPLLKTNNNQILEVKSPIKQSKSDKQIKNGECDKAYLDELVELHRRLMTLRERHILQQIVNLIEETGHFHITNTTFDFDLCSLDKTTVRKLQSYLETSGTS
Beta cell apopt: beta cell apoptosis inhibition; INS-1E cytokine-induced death, ATP luminescence, 48 h; percent of positive-control rescue, neutral wells zero; protection from apoptosis, % (concentration not given with the values); 0.8% of 300,000 active;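 active = all replicates at 75% or more, or half of them and the mean; inconclusive = half reach 75% but not the mean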;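 note: 0% = cytokine-treated negative control wells and 100% = positive control rescue; higher means more ATP so stronger rescue from cytokine killing; wells of about 40 µL received 100 nL stock; the first replicate is given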
rRNA inh HTS OD600: second read-out of rRNA inh HTS, no call of its own (marks repeat the call); OD600 change, %; measured here: OD600 growth;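 optical density of the mix in the first replicate; 0 = DMSO median and -100 = no signal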
rRNA inh HTS RFP: also measured in rRNA inh HTS; calls as there; RFP signal change, %; measured here: RFP humanized mutant strains;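 first replicate; 0 = DMSO median and -100 = no signal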
An asterisk follows results filed as active; i = inactive; ? = inconclusive; . = not tested or not shown; & = joins results of further samples. The list is partial; the hit share may differ from the screen's.

SMILES | T cruzi inh | UCH37 inh | rRNA inh HTS | rRNA inh HTS OD600 | rRNA inh HTS RFP | Bfl-1 A1 inh | Ecoli growth | FGF22 binding | AF4-AF9 inh | Beta cell apopt
CCOP(=O)(OCC)C(NC(=O)Nc1ccc(C)c(Cl)c1)c1ccccc1 (centres undefined) | 11 | -1.4 | 2 | 0 | -2.3 | 1.7 | 0.75 | i | -3.8 | 9
CN(C)c1nc(OCCOC(=O)COc2ccc(Cl)cc2Cl)nc(N(C)C)n1 | -2 | 5.2 | . | . | . | -0.4 | 0.67 | . | . | -4
C/C(=N/NC(=O)CNC(=O)C(c1ccccc1)c1ccccc1)c1ccco1 | 11 | . | -9 | -1 | 0.3 | 0.1 | . | i | -3.0 | -2
CC1CC(C)CN(C(=O)CNS(=O)(=O)c2ccc(Br)s2)C1 (centres undefined) | 11 | 1.3 | . | . | . | 1.2 | 0.65 | . | . | 2
O=C(COC(=O)c1cc(-c2ccco2)nc2ccccc12)NCc1ccccc1 | -10 | -125 | . | . | . | 0.5 | 0.76 | . | . | -11
CCOc1ccccc1CNC(=O)C1CCN(c2nnc(C)c3c(C)n(-c4ccc(C)cc4)nc23)CC1 | 57* | . | -3 | -5 | 3.6 | 1.0 | . | i | 0.7 | 59
C=CCNC(=O)Nc1ccc2oc(C)nc2c1 | -1 | -0.7 | . | . | . | 1.0 | 0.7 | . | . | 1
CNCC(=O)N1CCN(c2ncc(C(F)(F)F)cc2Cl)CC1 | 24 | 2.4 | 16 | 10 | 0.6 | 2.1 | 0.64 | i | -0.5 | -4
COC(C)(C)[C@H](O)COc1c2ccoc2cc2oc(=O)ccc12 | -14 | -0.3 | 8 | 7 | -3.5 | 1.4 | . | i | -1.8 | -1
CC(=O)Nc1ccc(C(=O)NCCN2CCOCC2)cc1 | -8 | -0.9 | 6 | 12 | 0.5 | -0.8 | 0.67 | i | -6.2 | -2
Cc1ccc(N)cc1NC(=O)CN1CCOCC1 | -12 | 0.1 | 9 | 10 | 1.1 | 0.2 | 0.68 | i | -0.4 | 0
Cc1ccccc1C(=O)Nc1ccccc1N1CCCCC1 | 5 | 3.0 | -46 | -62 | -6.3 | -0.2 | 0.68 | i | -0.4 | -6
CCOC(=O)n1c(=O)oc2cc(S(=O)(=O)N3CCCCC3)ccc21 | -8 | 4.6 | -10 | -7 | 2.5 | -0.7 | 0.72 | i | 10 | 10
CC(NC(=O)c1ccc(-c2ccccc2)cc1)C(c1ccccc1)N1CCOCC1 (centres undefined) | . | 3.5 | -4 | -26 | 3.7 | 0.3 | 0.7 | i | 1.7 | -4
O=C(C1CCCO1)N(c1cccc(Cl)c1)C1C=CS(=O)(=O)C1 (centres undefined) | -34 | 1.2 | 8 | 4 | -5.8 | 0.5 | 0.66 | i | -15 | -19
COc1ccccc1C(=O)NNC(=O)C(=O)NC(C)C | -5 | 3.9 | 13 | -1 | -0.1 | -0.3 | 0.63 | i | 0.8 | -4
N#Cc1ccccc1NC(=O)CSc1cn[nH]n1 | 3 | 3.0 | 1 | 7 | -0.4 | 0.9 | 0.66 | i | -3.3 | .
Cc1cc(OCC(=O)N2CCOCC2)c(C(C)C)cc1Cl | 0 | 3.4 | . | . | . | 0.5 | 0.7 | . | . | -5
CC(C)(C)Nc1c(-c2cccs2)nc2ccccn12 | -12 | -149 | -5 | -3 | -0.1 | -0.4 | 0.7 | i | 2.2 | .
O=C1c2ccccc2CN1CCNS(=O)(=O)c1ccc2ccccc2c1 | 16 | -2.5 | . | . | . | 0.5 | 0.75 | . | . | 1
Fc1ccc(COc2cccc(CNCc3ccncc3)c2)cc1 | 60* | 1.3 | 8 | -1 | 3.0 | -1.5 | 0.67 | i | 1.9 | 25
OCC1OC(n2cnc3c(NCCc4ccccc4)ncnc32)C(O)C1O (centres undefined) | -7 | 0.7 | . | . | . | -0.7 | . | i | 1.6 | 3
COc1ccc2c(C)cc(N3CCOCC3)nc2c1 | -5 | -42 | . | . | . | -1.0 | 0.7 | . | . | -2
O=C(CC1Sc2ncnn2C1=O)Nc1ccc(Br)cc1 (centres undefined) | 8 | 2.9 | 9 | 8 | -0.7 | 0.1 | 0.73 | i | 5.9 | -7
Cn1c(=O)cc(SCC(=O)N2CCN(C(=O)c3ccco3)CC2)c2ccccc21 | 2 | -1.5 | . | . | . | 0.6 | 0.72 | . | . | 4
SMILES | T cruzi inh | UCH37 inh | rRNA inh HTS | rRNA inh HTS OD600 | rRNA inh HTS RFP | Bfl-1 A1 inh | Ecoli growth | FGF22 binding | AF4-AF9 inh | Beta cell apopt
CCOC(=O)C(CC)Sc1cc(C)nc2ccc(OC)cc12 (centres undefined) | 16 | 1.2 | -30* | -7.2* | -5.8* | ? | 0.72 | i | -1.6 | -6
CC(=O)C(C(c1ccccc1)c1c[nH]c2ccccc12)[N+](=O)[O-] (centres undefined) | -1 | 3.4 | -18 | -31 | -6.5 | -0.9 | 0.66 | i | -0.1 | -2
O=C(Nc1cc(S(=O)(=O)N2CCCCCC2)ccc1OCC(F)(F)F)C1CCC1 | -9 | 4.1 | 5 | 11 | 1.3 | 0.4 | 0.71 | i | 0.0 | -1
O=S(=O)(Nc1ccc(S(=O)(=O)N2CCCCC2)cc1)c1cccs1 | 3 | -3.4 | . | . | . | 1.0 | 0.75 | . | . | -7
CC1=C(C#N)C(NC(=O)c2ccccc2Cl)(C(F)(F)F)C(=O)N1 (centres undefined) | 1 | 0.1 | . | . | . | 0.6 | 0.71 | . | . | -2
C=CCc1ccc(OCCCCN2CC(C)CC(C)C2)c(OC)c1 (centres undefined) | 11 | 4.2 | -22* | -12* | -2.8* | -1.1 | 0.67 | i | 8.3 | 7
Cc1ccc(C(=O)N2CCN(CCNC(=O)C(=O)NC(C)C)CC2)cc1 | 2 | 1.4 | 15 | 13 | -6.4 | -0.5 | 0.63 | . | -0.1 | 0
COc1ccccc1/C=C/[C@@H]1C[C@H]2CN(Cc3cccc(Cl)c3)C(=O)[C@]23CCCN13 | 42 | -0.8 | -36 | -67 | 15 | 0.6 | 0.65 | . | 0.4 | -3
COc1cc(C(=O)N/N=C/c2sc(N3CCOCC3)nc2-c2ccccc2)cc(OC)c1OC | -16 | . | -11 | 3 | 0.9 | -0.2 | . | . | ? | 21
CCCCN(CC)CCCNC(=O)CC1Nc2ccccc2NC1=O (centres undefined) | 1 | -7.7 | . | . | . | 0.0 | . | . | . | -6
CCc1nn2c(=O)cc(COc3ccc(NC(=O)c4ccco4)cc3)nc2s1 | 20 | -12 | 8 | 6 | 5.9 | 0.1 | 0.69 | i | -0.9 | 4
CC1CCC(NC(=O)c2cc(Cl)nc3ccccc23)CC1 (centres undefined) | . | . | 11 | 5 | 0.3 | -1.0 | . | i | -2.4 | 10
O=C(Nc1ccccc1)N1CCCN(c2ccc(C(F)(F)F)cn2)CC1 | 0 | 0.1 | -6 | 5 | -2.0 | 0.3 | 0.66 | i | 0.5 | 2
COc1ccc(-c2noc(C(C)n3nc(C)c([N+](=O)[O-])c3C)n2)cc1OC (centres undefined) | -3 | 0.7 | . | . | . | 0.2 | 0.71 | . | . | -22
O=C1CCC(C(=O)O)N1 (centres undefined) | -1 | -0.3 | 9 | 12 | 18 | -0.2 | 0.68&0.77 | i | -2.4 | .
CN(CC(=O)Nc1cccc(F)c1)C(=O)c1ccc(-c2cccc(C(F)(F)F)c2)o1 | 14 | 2.9 | -6 | -20 | -0.5 | 0.0 | 0.69 | i | -1.7 | 6
CCOc1ccc(C(=O)OCC(=O)NC2CCCCCCC2)cc1 | . | 1.7 | 2 | 4 | 2.9 | 0.7 | 0.64 | i | -1.9 | -3
Cc1ccc(NC(=O)C2CC(=O)N/C(=N/NC(=O)c3ccc(C)cc3)S2)cc1 (centres undefined) | 8 | 2.0 | . | . | . | -0.7 | 0.7 | . | . | .
COc1cccc(N2C(=O)C3CCCN3C2c2cccs2)c1 (centres undefined) | -6 | 1.0 | 13 | 9 | -1.1 | -0.9 | 0.67 | i | 0.8 | -13
COc1ccccc1OCC(=O)NCc1ccco1 | -4 | 2.6 | . | . | . | 0.2 | 0.74 | . | . | -5
O=C(CSc1nc(-c2ccccc2)cc(=O)[nH]1)Nc1ccc(F)c(F)c1 | -10 | 2.7 | 9 | 11 | 2.3 | 1.1 | 0.64 | i | -0.3 | 2
Cc1cc(C)cc(NC(=S)N2CCN(c3ccc(F)cc3)CC2)c1 | -15 | 4.2 | 6 | 1 | -1.2 | 0.9 | 0.73 | i | 2.3 | -1
Cc1ccc(C)c(NC(=S)N2CCN(CCO)CC2)c1 | -4 | 2.8 | . | . | . | 0.1 | 0.68 | . | . | 5
COc1ccc(-c2noc(CNC(=O)c3ccoc3C)n2)cc1 | -6 | 0.6 | -6 | -18 | 7.9 | 0.0 | 0.66 | i | 1.9 | -8
CCNC(=O)NC(=O)CN(C)c1ccccc1 | -12 | 2.7 | 14 | 15 | 1.1 | -0.3 | 0.73 | . | -0.5 | -2
SMILES | T cruzi inh | UCH37 inh | rRNA inh HTS | rRNA inh HTS OD600 | rRNA inh HTS RFP | Bfl-1 A1 inh | Ecoli growth | FGF22 binding | AF4-AF9 inh | Beta cell apopt
CSc1cc(C)c(OCC(=O)Nc2c(C)nn(C)c2C)c(C)c1 | -7 | 2.0 | 6 | -3 | 1.5 | -0.3 | 0.71 | i | -0.7 | 1
CCOc1ccccc1/C=C(\C#N)C(=O)NC1CC1 | -7 | -0.9 | 6 | 8 | -0.1 | -0.5 | 0.64 | i | -2.0 | -2
COc1ccc(-n2ncc3c2CC(C)(C)CC3NC(=O)CCCN2CCCC2=O)cc1 (centres undefined) | 10 | 0.8 | 0 | 7 | -2.2 | -0.4 | 0.68 | i | -1.0 | 0
O=C(Nc1ccc(Br)cn1)c1ccc(Cl)s1 | -4 | 0.0 | 6 | 15 | -3.3 | -7.8 | 0.7 | i | -2.8 | .
C#CCn1c(=NC(=O)c2cc(-c3cccs3)nc3ccccc23)sc2cc(S(N)(=O)=O)ccc21 | 12 | -188 | . | . | . | -0.3 | 0.7 | . | . | 1
S=C(c1cccs1)N1CCCC1 | -16 | 4.3 | . | . | . | -0.6 | 0.69 | . | . | -9
CC(C)CC(=O)N1CCC(O)(CS(=O)(=O)Cc2ccccc2Cl)CC1 | -10 | 4.5 | . | . | . | 0.3 | 0.73 | . | . | 0
O=C(c1cc(-c2ccccc2)on1)N1CCc2ccccc2C1 | -11 | -0.2 | . | . | . | 0.0 | 0.7 | i | 0.6 | 0
O=C(CCS(=O)(=O)c1ccc(Br)cc1)Nc1cc(F)ccc1F | -34 | 2.6 | . | . | . | 0.0 | 0.72 | i | -12 | -5
CCc1nnc(NC(=O)CSc2nnc(CNc3cccc(Cl)c3)n2CC)s1 | -11 | 2.9 | 6 | 16 | -5.1 | 1.3 | 0.73 | i | 0.5 | -3
COc1ccc(C(=O)NN2CC(O)=C(c3nc4ccccc4n3C)C2=N)cc1OC | -2 | 0.1 | . | . | . | -1.5 | 0.69 | . | . | 1
